Assay outcomes from PubChem.
StopGo reporter: High Throughput Screening for Foot and Mouth Disease Virus Antivirals. human cells with a luciferase reporter of 2A StopGo recoding; control for the full effect not named in the record. Potency, µM (highest dose often 57.9 µM), for the others: at the top dose signal change, negative = less light. 1.2% of 410,000 active; active = well fitted falling curve with a large enough effect; inconclusive = small, poorly fitted or top-dose-only effect; inactive = no such curve, though single readings can be large or run the other way; tested in HEK293T cells; note: % is set by controls: 0 for no effect and ±100 for the full control effect; nearly all actives have a fitted effect of over 45% in size; luciferase light after 4 h
Cruzain noTriton: qHTS Assay for Promiscuous and Specific Inhibitors of Cruzain (without detergent) | Cruzipain (Trypanosoma cruzi), P25779 | purified cruzain, Z-FR-AMC fluorescence, no detergent | Potency, µM, for inactives: max response, negative = inhibition, usual class: inhibitors | 2.3% of 200,000 active | AID 1476, 2009;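 note: plate controls were enzyme without inhibitor for no effect and buffer without enzyme for full effect; nearly all actives have a fitted effect of over 40% in size; top concentration of the series not given in the record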
Target sequence (P25779 123-467 limits assumed): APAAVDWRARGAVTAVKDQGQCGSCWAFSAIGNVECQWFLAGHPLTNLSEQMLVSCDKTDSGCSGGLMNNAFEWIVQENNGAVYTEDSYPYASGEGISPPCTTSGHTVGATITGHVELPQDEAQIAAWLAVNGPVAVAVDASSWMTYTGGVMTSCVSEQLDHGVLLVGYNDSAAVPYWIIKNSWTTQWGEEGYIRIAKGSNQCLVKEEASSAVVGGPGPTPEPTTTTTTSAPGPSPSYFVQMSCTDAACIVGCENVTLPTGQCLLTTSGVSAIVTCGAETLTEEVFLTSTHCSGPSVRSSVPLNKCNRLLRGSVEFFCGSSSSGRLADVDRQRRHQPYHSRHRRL
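Purified cruzain at 1.5 nM, pre-incubated 15 min with compound at room temperature in 100 mM sodium acetate pH 5.5, 5 mM DTT, 0.00005% Triton X-100. Reaction started with 2 uM Z-FR-AMC; AMC fluorescence increase over 60 s gives rate.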
Marburg entry inh: qHTS for inhibitors of binding or entry into cells for Marburg Virus; Marburg virus pseudotyped entry inhibition, cell reporter; control for the full effect not named in the record; about a third of the inactives were read at about 46 µM; Potency, µM (doses to about 37.8 µM), for the others: top-dose activity change, negative = inhibition, hits mostly inhibitors; 1.8% of 300,000 active; AID 540276, 2011; active = well fitted inhibition curve with a large enough effect; inconclusive = small, poorly fitted or top-dose-only effect, or effect the other way; inactive = flat fitted curve, though single readings scatter; tested in HEK293 cells; about a fifth of its hits are not listed in these tables; note: % is set by controls: 0 for no effect and ±100 for the full control effect; luciferase read-out
Lassa entry inh: qHTS for Inhibitors of binding or entry into cells for Lassa Virus. Lassa virus pseudotype entry inhibition, cell reporter; control for the full effect not named in the record. Potency, µM (series often up to 37.9 µM), inactives show at the top dose activity change, negative = inhibition, hits mostly inhibitors. 1.2% of 300,000 active. AID 540256, 2011; active means well fitted inhibition curve with a large enough effect; inconclusive means small, poorly fitted or top-dose-only effect, or effect the other way; inactive means flat fitted curve, though single readings scatter; tested in HEK293 cells; note: % is set by controls: 0 for no effect and ±100 for the full control effect; nearly all actives have a fitted effect of over 50% in size; luciferase read-out
NS1 function inh: qHTS Assay for Inhibitors of Influenza NS1 Protein Function; Potency, µM (highest dose often 46.1 µM), for the others: at the top dose activity, positive = more growth; S. cerevisiae slowed by influenza A NS1, growth recovery by OD600; 0.4% of 270,000 active; active means well fitted rising curve with a large enough effect; inconclusive means small, poorly fitted or top-dose-only effect; inactive means no such curve, though single readings can be large or run the other way; note: nearly all actives have a fitted effect of over 50% in size
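Recovery from NS1-induced slow growth read by OD600 in budding yeast switched to galactose assay medium (pH 6.0, -URA) at 1:100 dilution. Compound 23 nl per well; the matching strain lacking NS1 serves as control.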
SARS PLP yeast: qHTS of Yeast-based Assay for SARS-CoV PLP; 0.19% of 330,000 active; Potency, µM (series often up to 32.9 µM), without a hit: top-dose activity, positive = growth rescue; S. cerevisiae expressing SARS-CoV PLpro, growth rescue; control for the full effect not named in the record; active means well fitted rising curve with a large enough effect; inconclusive means small, poorly fitted or top-dose-only effect; inactive means no such curve, though single readings can be large or run the other way; note: 0% is about no effect; nearly all actives have a fitted effect of over 55% in size; growth read by luminescence after 48 h
Cruzain inh Det: qHTS Assay for Promiscuous and Specific Inhibitors of Cruzain (with detergent); Cruzipain (Trypanosoma cruzi), P25779; purified cruzain, Z-FR-AMC fluorescence, 0.01% Triton; Potency, µM, for the others: max response, negative = inhibition, actives largely listed as inhibitors; 0.43% of 200,000 active; AID 1478, 2009;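 note: plate controls were neutral wells for no effect and buffer without enzyme for full effect; nearly all actives have a fitted effect of over 40% in size; top concentration of the series not given in the record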
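Cruzain (1.5 nM) preincubated 15 min at RT with compound in 100 mM sodium acetate pH 5.5, 5 mM DTT, 0.01% Triton X-100. Reaction started with 2 uM Z-FR-AMC; AMC fluorescence (ex 360/em 450 nm) change over 60 s gave rate.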
RE007 growth inh: qHTS Assay for Inhibitors of the HIV-1 protein Vpr; S. pombe RE007 Vpr strain, BacTiter-Glo ATP luminescence, 24 h; control for the full effect not named in the record; Potency, µM (highest dose often 92.2 µM), inactives show at the highest dose activity change, negative = less growth; 0.21% of 360,000 active; AID 651644, 2012; active = well fitted falling curve with a large enough effect; inconclusive = small, poorly fitted or top-dose-only effect; inactive = no such curve, though single readings can be large or run the other way;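 note: % is set by controls: 0 for no effect and ±100 for the full control effect; nearly all actives have a fitted effect of over 50% in size; the assay follows cell death caused by Vpr and the record does not say whether a fall means rescue or toxicity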
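Fission yeast strain RE007, carrying one chromosomally integrated HIV-1 vpr copy, was seeded at OD 0.01 in PMG+AL medium with 23 nL pinned compound. After 24 h at 30 °C and 99% humidity, viability was read by BacTiter-Glo luminescence.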
* hit, by the source's call; u = inconclusive; x = not tested or not shown; & = joins results of further samples; [ ] = dose if it differs, or a comment. Unless noted, calls come from the whole dose curve; as a rule, active = well fitted curve in the direction sought with a large enough effect; inconclusive = small, poorly fitted or top-dose-only effect, or another doubt; inactive = no such curve, though single readings can be large; an effect the other way counts as inactive or inconclusive. Potency is the fitted concentration of half-maximal effect.

Every second line gives: StopGo reporter, Cruzain noTriton, Marburg entry inh, Lassa entry inh, NS1 function inh, SARS PLP yeast, Cruzain inh Det, RE007 growth inh
- Cc1ccc2cc(CN(CCN3CCOCC3)Cc3nnnn3Cc3ccco3)c(=O)[nH]c2c1C
  15%, 8%, -1%, u, 0%, 11%, -4.8%, 19%
- Cc1cc(C(=O)NC2CCC(C)CC2)c(C)o1 (configuration not stated)
  70%[activator], x, x, x, -22%, -3%, x, 21%
- COc1ccccc1C(=O)NNC(=O)CCCN1C(=O)/C(=C/c2cccs2)SC1=S
  0%, -19%, 7%, 1%, 19%, -7%, -2.0%, 12%
- C1CC1Cc1noc(CN2CCN(C3C4CC5CC(C4)CC3C5)CC2)n1 (configuration not stated)
  2%, x, x, x, 8%, 0%, x, 1%
- O=C1CSC(c2ccccc2[N+](=O)[O-])N1c1cccc(F)c1 (configuration not stated)
  -15%, x, 0%, 22%, x, 0%, x, 3%
- CCCC(=O)NC1=C(N2CC2)C(=O)C(NC(=O)CCC)=C(N2CC2)C1=O
  u, x, u, u, x, x, x, -7%
- Cc1ccc2cc(NC(=O)Cc3ccccc3)ccc2n1
  71%[activator], x, x, x, -6%, -2%, x, -8%
- COc1ccc(NC(=O)Cn2nc(-c3ccccc3)c3cnc4ccc(C)cc4c32)cc1
  28%, -10%, x, -20%[46.1 µM], x, x, -1.0%, x
- Cc1ccc(C)c(NC(=O)CN(C)C(=O)CN2C(=O)C3CCCCC3C2=O)c1 (configuration not stated)
  -8%, x, -8%, 0%, x, 3%, x, -4%
- NC(=O)C1CCN(c2nc(-c3ccc(Br)cc3)cs2)CC1
  44%[activator], 14%, u, u, 2%, -10%&5%&6%, -6.2%, -19%&-9%&-5%
- NC(=O)c1sc2nnc(-c3ccccc3)c(-c3ccccc3)c2c1N
  u, x, -4%, 3%, 4%, 0%, x, 11%
- COc1ccc(NC(=O)Cn2c3ccccc3c3nc4n(c(=O)c32)CCS4)cc1OC
  -3%, x, x, x, -3%, -3%, x, -7%
- COc1ccc(CCC(=O)NC(C)C)cc1
  -3%, 2%, u, 7%, 10%, 7%, 2.6%, 11%
- COc1ccccc1CNC(=O)Cn1c(=O)oc2cc(S(=O)(=O)NCc3ccccc3)ccc21
  -4%, u, x, u, x, x, -2.6%, x
- CC(=O)Nc1cccc(C(=O)NC(C)c2ccc(S(N)(=O)=O)cc2)c1 (configuration not stated)
  -11%, 1%, 15%, 15%, 3%, 16%, 1.2%, 19%
- Cc1nc2ccccn2c1C(=O)N/N=C/c1ccccc1
  -3%, x, x, x, 0%, 0%, x, 2%
- CCn1cc(CNC(=O)C2C3CCC(C3)C2C(=O)O)cn1 (configuration not stated)
  -9%, -3%, 5%, 9%, u, -4%, 4.8%, -5%
- CC(C)(C)n1nnnc1C(c1cccs1)N(Cc1cccnc1)Cc1ccccc1Cl (configuration not stated)
  -14%, -1%, u, 1%, -22%, u, -3.6%, -24%
- Cc1ccc(C)c(-n2c(N)c(C(N)=O)sc2=S)c1
  -22%, -6%, u, -8%, 2%, -10%, 5.0%, 4%
- O=C(O)c1cc(N2C(=O)C3C4C=CC(C4)C3C2=O)ccc1N1CCOCC1 (configuration not stated)
  10%, x, -3%[46.1 µM], -3%, 7%, 1%, x, 9%

Additional structures.
Every second line gives: StopGo reporter, Cruzain noTriton, Marburg entry inh, Lassa entry inh, NS1 function inh, SARS PLP yeast, Cruzain inh Det, RE007 growth inh
- O=C(CCC(=O)c1ccccc1)NCc1ccccc1
  -10%, x, 14%[46.1 µM], 0%[46.1 µM], 2%, 1%, x, -4%
- Cc1cccc(-c2nn(-c3ccccc3)cc2C(=O)NCC(c2cccs2)N2CCOCC2)c1 (configuration not stated)
  9%, x, u, -14%[46.1 µM], x, 7%, x, -18%
- COc1ccc(NC(=O)CCCCCN2C(=O)[C@@H]3Cc4ccccc4CN3C2=O)cc1Cl
  -19%, x, 8%[46.1 µM], -12%[46.1 µM], 18%, 4%, x, -4%
- O=C(C[n+]1cn(C(F)F)c2ccccc21)c1ccc(Br)cc1
  11%, x, 5%[46.1 µM], 5%, -37%, -2%, x, -6%
- COC(=O)NCC(c1ccc2c(c1)OCO2)N1CCN(c2ccc(OC)cc2)CC1 (configuration not stated)
  -9%, x, x, x, 4%, 6%, x, 6%
- FC(F)Oc1ccccc1NC(=S)NCc1ccco1
  19%, 1%, 7%, 6%, -3%, -11%, 0.7%, -2%
- CC1(C)C2([N+](=O)[O-])CN3CC1([N+](=O)[O-])CN(C2)C3c1cccnc1 (configuration not stated)
  -7%, x, 1%, -9%, -1%, 1%, x, 2%
- Cc1ccc(S(=O)(=O)N(CC(=O)NCc2cccnc2)c2ccc(F)cc2)cc1
  -12%, x, 13%[46.1 µM], 11%[46.1 µM], 10%, 3%, x, 6%
- Cc1ccc(-n2c(=O)cc(NCc3cccnc3)[nH]c2=O)cc1
  7%, 1%, -1%, 30%, 2%, 8%, 4.7%, 12%
- COCCNC(=O)c1ccccc1NC(=O)CCSc1ccccc1
  2%, x, x, x, 4%, -1%, x, 6%
- FC(F)(F)c1cccc(-n2cc(-c3ccccc3)[nH]c2=S)c1
  1%, x, u, 17%, u, 1%, x, -6%
- Cc1cc(C)cc(NC(=O)N2CCN(C/C=C/c3ccccc3)CC2)c1
  -11%, x, -21%[46.1 µM], 4%[46.1 µM], -2%, -1%, x, u
- COc1cc(C)nc(Oc2ccc(=O)[nH]n2)n1
  -20%, 0%, u, 6%, -4%, 4%, 1.4%, -4%
- CCOC(=O)c1c(C)n(-c2ccc(C)cc2)c2ccc(OCC(O)CNCCCO)cc12 (configuration not stated)
  -27%, x, u, u, x, 0%, x, 7%
- O=C(OCC(=O)c1ccc(S(=O)(=O)N2CCCC2)cc1)C1=COCCO1
  0%, -17%, 1%&1%, 0%, 10%, -1%, 2.9%, 16%
- O=C(c1ccc2ccccc2c1)C1CCCN(S(=O)(=O)c2cccnc2)C1 (configuration not stated)
  u, x, u, u, 1%, -2%, x, -3%
- C/C(CC(=O)Nc1cccc(C(F)(F)F)c1)=N\NC(=O)c1ccncc1
  -17%, x, -7%[46.1 µM], x, 3%, -1%, x, -15%
- CC(=O)Nc1ccc(NC(=O)CSc2nc(=O)n3cccc(C)c3n2)cc1
  -1%, x, 21%, 6%, x, x, x, -14%
- COc1cccc(OC)c1OCCN1CCN(C(=O)c2ccco2)CC1
  -6%, -10%, 29%, 11%, -15%, -6%, -0.7%, -11%
- CCOc1ccc(N=C(/C(C(=O)C(=O)N2CCOCC2)=C(\O)c2ccccc2)c2ccccc2)cc1
  34%[activator], -13%, 8%, 15%, -2%, -29%, -7.3%, -29%

Additional structures
Every second line gives: StopGo reporter, Cruzain noTriton, Marburg entry inh, Lassa entry inh, NS1 function inh, SARS PLP yeast, Cruzain inh Det, RE007 growth inh
- Cc1ccc(C)c(N2CCN(S(=O)(=O)c3ccc(C4CCCCC4)cc3)CC2)c1
  u, -19%, u, 4%[46.1 µM], x, x, 0.4%, x
- CC(NC(=O)c1ccccc1Cl)NC(=O)c1ccccc1Cl
  -13%, x, x, x, 4%, -2%, x, 3%
- OCCCc1nc2n(n1)C(c1cccs1)C=C(c1ccccc1)N2 (configuration not stated)
  x, u, 7%, x, -28%, u, -11%, x
- OCCCc1nc2ccccc2n1CCc1ccccc1
  -3%, 12%, -2%&-2%, 0%, 2%, 14%, -1.4%, 14%
- CCC1=Nc2cc(C(=O)N3CCC(C)CC3)ccc2Sc2ccc(C)cc21
  -17%, 5%, -34%[46.1 µM], -4%[46.1 µM], x, x, -8.9%, x
- Cc1ccc(N2CC(=O)N(CC(=O)O)C2=O)cc1
  -5%, x, 9%[46.1 µM], u, x, -1%, x, 10%
- CC(=O)c1cccc(NC(=O)CCc2nnc3ccc(NCc4ccc5c(c4)OCO5)nn23)c1
  -3%, x, x, x, -1%, -2%, x, 18%
- CCCCOC(=O)C(C)Oc1ccc(=O)n(-c2ccccc2)n1 (configuration not stated)
  u, -4%, 1%, x, -5%, 7%, -3.3%, -1%
- CC(Oc1ccccc1F)C(=O)Nc1ccc2ccccc2c1 (configuration not stated)
  14%, -2%, u, u, -5%, u, -8.4%, -9%
- CCOC(=O)c1c(C)oc2c1c(C=NCC1CCCO1)c(O)c1ccccc12 (configuration not stated)
  -11%, 7%, 4%, 4%, -49%, -4%, -0.9%, -21%
- CCOC(=O)Cn1c(=N)n(CCOc2ccc(Br)cc2)c2ccccc21
  u, x, -6%[46.1 µM], 3%, -3%, -2%, x, -3%
- Cc1cc(C(=O)O)cc(S(=O)(=O)Nc2ccccc2C(=O)NC(C)c2ccccc2)c1C (configuration not stated)
  -18%, x, x, x, 7.9µM*, 4%, x, -13%
- CC1CN(Cc2ccccc2)c2nc3c(c(=O)n(CC(=O)O)c(=O)n3C)n2C1 (configuration not stated)
  1%, x, 20%[46.1 µM], 15%[46.1 µM], 22%, -4%, x, 10%
- CC(C)Cn1c(=O)c2sccc2n2c(CCCC(=O)N3CCN(c4ccc(F)cc4)CC3)nnc12
  u, 32%, x, -1%[46.1 µM], x, x, 1.9%, x
- NP(=O)(OCCCCc1ccccc1)Oc1ccccc1Cl (configuration not stated)
  -17%, x, x, x, 11%, 20%, x, -5%
- O=C1CC(c2ccccc2)CCc2sccc2N1 (configuration not stated)
  -1%, 0%, 5%, -1%, -5%, -9%, 2.8%, 5%
- O=C(c1ccc([N+](=O)[O-])cc1Cl)N1CCN(c2ccccn2)CC1
  0%, x, x, x, -3%, 3%, x, -11%
- COc1ccc(-c2nc3scc(CCNS(=O)(=O)c4ccc(NC(C)=O)cc4)n3n2)cc1
  -18%, -17%, x, -22%[46.1 µM], x, x, -2.0%, x

This is a random part of the collection, and some 4.7% of all compounds hit somewhere here.
